FGF22 binding – binders of human FGF22 protein, primary screen, FGF22 synaptogenesis inhibitor project, biophysical, thermal shift, single point; recombinant FGF22 thermal shift, SYPRO orange fluorescence; percent of sucrose octasulfate shift, DMSO zero; calls only at 9.99 µM; actives 1.5% (n = 340,000); AID 651658, 2012;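 active means melting point raised past a set limit in the mean and every replicate; inconclusive means no clear call; three in four hits are not shown here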
Target sequence (Q9HCT0 whole entry, looked up): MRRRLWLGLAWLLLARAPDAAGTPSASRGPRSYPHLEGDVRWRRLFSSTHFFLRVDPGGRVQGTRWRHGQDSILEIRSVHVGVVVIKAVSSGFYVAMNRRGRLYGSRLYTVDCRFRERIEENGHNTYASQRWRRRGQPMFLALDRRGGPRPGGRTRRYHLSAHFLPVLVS
AF4-AF9 inh – inhibitors of AF4 peptide binding to AF9, primary screen, biochemical, AlphaScreen, biotin-AF4 peptide, FLAG-AF9, single point. inhibition, % at 10 µM. AID 651704, 2012. actives 0.47% (n = 350,000). Protein AF-9 (Homo sapiens), P42568;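 active means every replicate reaching a set inhibition limit, whatever the replicate mean, cut at about 25% in these data; inconclusive means mean inhibition reaches that limit but some replicates miss it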;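 further: 0% = plate neutral control median and 100% = total signal loss; the record names both 10 and 1 µM as test concentration; the first replicate is given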
Target sequence (P42568 whole entry, looked up): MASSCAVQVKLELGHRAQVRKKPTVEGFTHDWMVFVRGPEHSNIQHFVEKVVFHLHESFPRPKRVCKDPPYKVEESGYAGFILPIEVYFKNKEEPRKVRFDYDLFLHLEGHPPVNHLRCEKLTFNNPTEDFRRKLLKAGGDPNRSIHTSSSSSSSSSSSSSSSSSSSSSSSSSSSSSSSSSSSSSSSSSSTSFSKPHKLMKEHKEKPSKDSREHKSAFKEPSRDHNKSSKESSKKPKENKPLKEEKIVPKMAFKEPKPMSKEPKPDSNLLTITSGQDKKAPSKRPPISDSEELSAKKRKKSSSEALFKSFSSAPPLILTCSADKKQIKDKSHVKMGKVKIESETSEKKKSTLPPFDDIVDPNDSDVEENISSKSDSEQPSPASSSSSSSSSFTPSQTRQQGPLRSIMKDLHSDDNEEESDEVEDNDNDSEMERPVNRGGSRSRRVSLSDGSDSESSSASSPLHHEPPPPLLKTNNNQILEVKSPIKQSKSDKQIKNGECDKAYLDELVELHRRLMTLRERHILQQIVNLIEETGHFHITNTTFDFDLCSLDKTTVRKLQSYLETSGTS
Beta cell apopt – inhibitors of cytokine-induced beta cell apoptosis, primary screen, luminescence; INS-1E cytokine-induced death, ATP luminescence, 48 h; percent of positive-control rescue, neutral wells zero; protection from apoptosis, % (concentration not given with the values); actives 0.8% (n = 300,000);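 active means all replicates at 75% or more, or half of them and the mean; inconclusive means half reach 75% but not the mean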;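 further: 0% = cytokine-treated negative control wells and 100% = positive control rescue; higher means more ATP so stronger rescue from cytokine killing; wells of about 40 µL received 100 nL stock; the first replicate is given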
ALR H2O2 inh – inhibitors of human ALR sulfhydryl oxidase, primary screen, biochemical, H2O2 detection, HRP-luminol luminescence, single point; inhibition, % (no concentration beside the values); purified ALR, DTT oxidation; actives 3.8% (n = 290,000);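 active means mean and each replicate at 75% or more; inconclusive means only one of the two met; inactive means neither met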;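 further: stock transfer was 7.5 nL into about 7.5 µL; 0% = neutral wells and 100% = wells with inactivated enzyme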
Target sequence (P55789 whole entry, looked up): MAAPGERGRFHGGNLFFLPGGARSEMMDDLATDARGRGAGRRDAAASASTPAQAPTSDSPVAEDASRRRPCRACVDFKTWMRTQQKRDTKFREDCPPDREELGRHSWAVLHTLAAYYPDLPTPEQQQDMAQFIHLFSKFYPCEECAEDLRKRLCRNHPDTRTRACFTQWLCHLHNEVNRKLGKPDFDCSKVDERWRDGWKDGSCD
RanGTP-Imp inh – inhibitors of RanGTP-importin-beta interaction, primary screen, biochemical, FRET, CFP-Ran, YFP-importin-beta, homogeneous | Ran GTPase (GTP-bound) - importin-beta complex | cell-free CFP-Ran/YFP-importin-beta FRET ratio | inhibition, % (test concentration not listed) | actives 1.1% (n = 300,000);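 active means most replicates above 15%; inconclusive means exactly half above 15%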;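 further: 0% = DMSO wells and 100% = Ran loaded with GDP instead of GTP; wells of about 40 µL received 100 nL stock; the first replicate is given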
T cruzi repl – inhibitors of intracellular T. cruzi growth, primary screen, luminescence, NIH3T3 host cells. T. cruzi beta-gal in NIH3T3, 90 h. inhibition, % (test concentration not listed). actives 1.4% (n = 300,000);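 active means mean inhibition across valid replicates above about 55%, limit read from the data; inconclusive means mean below that limit but half or more replicates reach it; inactive means mean below it, under half of replicates reach it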;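 further: signal also drops with host cell toxicity which is not excluded here; 0% = plate median of DMSO wells and 100% = zero luminescence signal; higher percent means less beta-gal luminescence so fewer parasites; stock transfer was 50 nL into about 50 µL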
rRNA inh HTS – reduced GFP signal of wild-type E. coli, primary screen, bacterial rRNA inhibitor project, GFP/RFP fluorescence, OD600, single point; E. coli WT GFP vs humanized-ribosome RFP mutants, 24 h; active compounds read low; DMSO median 0, no signal -100; GFP signal change (wild-type ribosome), % (test concentration not listed); actives 1.6% (n = 350,000); AID 720706, 2013;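 active means significant combined selectivity score with lowered wild-type GFP, culture density cut under 30%, mutant RFP and density less affected; inactive means any of these conditions unmet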; further: one replicate is shown; some compounds called inactive have numbers as strong as hits
Calb FLC – C. albicans growth inhibition with fluconazole, primary screen, CaCi-2 strain, Alamar Blue fluorescence. C. albicans CaCi-2 (fluconazole-resistant clinical isolate) + fluconazole, 48 h. AID 1979, 2009. actives 0.57% (n = 300,000). growth inhibition, % (test concentration not listed);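 active means most replicates above 75%; inconclusive means exactly half above 75%; inactive means most below 75%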;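 further: all wells also contain fluconazole at 8 µg/ml as a sub-toxic cotreatment; 0% = median of DMSO wells and 100% = median of geldanamycin control wells; wells of about 8 µL received 7.5 nL stock; the first replicate is given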
rRNA inh HTS OD600 – further read-out of rRNA inh HTS, marked with its call; OD600 change, %; measured here: OD600 growth;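 optical density of the mix in the first replicate; 0 = DMSO median and -100 = no signal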
rRNA inh HTS RFP – also measured in rRNA inh HTS; calls as there; RFP signal change, %; measured here: RFP humanized mutant strains;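 first replicate; 0 = DMSO median and -100 = no signal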
* hit, by the source's call; i = inactive; u = inconclusive; x = no result given. The list is partial (hit frequency here may not be typical).

Preview, 2 compounds:
SMILES | FGF22 binding | AF4-AF9 inh | Beta cell apopt | ALR H2O2 inh | RanGTP-Imp inh | T cruzi repl | rRNA inh HTS | rRNA inh HTS OD600 | rRNA inh HTS RFP | Calb FLC
CCCn1cnnc1CNC(=O)C1CCC(=O)N(CCCc2ccccc2)C1 (centres undefined) | i | -0.8 | -2 | -1 | -5.8 | -25 | 6 | 8 | -1.4 | 1
CC(=O)c1cccc(NC(=O)c2ccc(N(C)S(C)(=O)=O)cc2)c1 | x | x | 4 | 2 | 1.4 | -8 | x | x | x | -2

The whole of this part, previewed entries included:
SMILES | FGF22 binding | AF4-AF9 inh | Beta cell apopt | ALR H2O2 inh | RanGTP-Imp inh | T cruzi repl | rRNA inh HTS | rRNA inh HTS OD600 | rRNA inh HTS RFP | Calb FLC
CCCn1cnnc1CNC(=O)C1CCC(=O)N(CCCc2ccccc2)C1 (centres undefined) | i | -0.8 | -2 | -1 | -5.8 | -25 | 6 | 8 | -1.4 | 1
CC(=O)c1cccc(NC(=O)c2ccc(N(C)S(C)(=O)=O)cc2)c1 | x | x | 4 | 2 | 1.4 | -8 | x | x | x | -2
COc1ccc(N2CCN(S(=O)(=O)CCNC(=O)c3ccco3)CC2)cc1 | i | -6.0 | -6 | 9 | 1.4 | -7 | 2 | -1 | -3.1 | 10
O=c1c2ccccc2nc(-c2cccs2)n1-c1cccc2ccccc12 | i | 8.8 | 17 | -7 | -2.5 | 25 | -14 | 0 | 4.3 | 32
C=CCOn1c(=O)c(-c2ccc(Br)cc2)[n+]([O-])c2ccccc21 | i | -23 | 4 | -1 | 3.8 | -3 | 20 | 16 | 2.8 | 4
c1ccc(NC2=NCCN2CC2CCCCCC2)cc1 | i | -7.9 | -9 | 1 | x | x | 7 | 12 | -1.1 | x
CCn1c(CC(=O)Nc2ccccc2)nnc1SCC(=O)N1CCOCC1 | i | -0.7 | 0 | 0 | -0.8 | -2 | x | x | x | 6
COc1ccc(C(=O)Nc2cc3c4c(c2)CC(=O)N4CCC3)cc1 | i | -0.8 | 3 | -8 | -2.9 | 1 | -3 | 5 | 4.5 | -2
CC(C)c1ccc(NC(=O)C2CCN(S(=O)(=O)c3ccc4c(c3)NC(=O)CO4)CC2)cc1 | i | 4.5 | 2 | -4 | 5.3 | 15 | -9 | -4 | 1.6 | 31
c1ccc(-n2nnnc2OCCOc2nnnn2-c2ccccc2)cc1 | x | x | 4 | -5 | -5.0 | -23 | x | x | x | 3
NC1=NC(=O)C2(COC(c3ccccc3Cl)OC2)S1 (centres undefined) | x | x | -7 | x | -2.2 | -5 | x | x | x | 5
COc1cc(C(=O)NCc2nnc(SCC(=O)c3ccc(Cl)cc3)o2)cc(OC)c1OC | i | 0.5 | 0 | -31 | -0.8 | 11 | -1 | 0 | -1.0 | -2
Cc1ccc(CSc2nnc(-c3cccs3)n2C)cc1 | x | x | 1 | -2 | u | 17 | x | x | x | -9
CC1(C)SCC2C(=O)N3C(CSC3(C)C)C(=O)N21 (centres undefined) | x | x | -2 | 2 | -2.5 | -11 | x | x | x | -5
CSc1nc(C)c(CCOC(=O)c2cccc(Cl)c2)c(=O)[nH]1 | x | x | x | 1 | 5.3 | 16 | x | x | x | 9
CC(=O)Nc1ccc(NC(=O)c2ccccc2S(=O)(=O)c2ccc([N+](=O)[O-])cc2)cc1 | i | 1.7 | -2 | -10 | -2.4 | 8 | 3 | 4 | -0.6 | -4
COc1cccc(NC(=O)Cc2nnc(SCCOc3ccccc3)n2C)c1 | x | x | -3 | -4 | 0.2 | 10 | x | x | x | 10
CCCCCOC(=O)Cn1c(=O)oc2ccc(C)cc21 | x | x | -6 | 1 | -2.3 | -16 | x | x | x | 3
CON(c1nc(Cl)nc(N(C)C)n1)S(=O)(=O)c1ccccc1Cl | x | x | -2 | 0 | -0.8 | 4 | x | x | x | -2
Cn1c2c(c(=O)c3ccccc31)CCCC2 | i | -1.0 | -8 | -6 | -0.5 | -4 | 13 | 4 | 4.1 | 6
CCc1nc2ccc(C(=O)NCCc3ccccc3OC)cc2nc1CC | i | -1.2 | 2 | -6 | 2.2 | 20 | 1 | 13 | -0.6 | 28
NC(N)=NS(=O)(=O)c1ccc(NC(=S)NC(=O)c2ccc3c(c2)OCO3)cc1 | i | -2.5 | -7 | 1 | 3.9 | -15 | -3 | -7 | 0.1 | -16
COC(=O)C1=NN(c2ccccc2)C2(S1)SC(C(C)=O)=C(C)N2c1ccccc1 (centres undefined) | x | x | -5 | -13 | 2.3 | -6 | x | x | x | 5
Cc1ccc(C(=O)Cn2c(C(=O)O)cc3ccccc32)cc1 | i | -7.7 | -3 | -3 | -0.4 | 2 | -17 | -14 | -5.7 | 4
CCCCN(C)C(=O)c1nc2ccccn2c1CN1CCN(c2ncccn2)CC1 | i | -3.5 | 0 | -2 | 0.3 | 1 | 5 | 6 | -0.8 | 12
O=C(CSc1nnc(CNc2ccc(F)cc2)n1CC1CCCO1)N1CCOCC1 (centres undefined) | i | -2.4 | x | x | -2.5 | -5 | 1 | -14 | -2.3 | -5
Cc1ccc(-c2nnn(CC(=O)NCc3ccccc3)n2)c(-n2cnnn2)c1 | x | x | -5 | -5 | -2.3 | -1 | x | x | x | -5
Cc1ccc(C(=O)Nc2ccc(N3CCOCC3)cc2)cc1 | x | x | -2 | -10 | 1.0 | -9 | 7 | 7 | -2.1 | -6
COc1ccc(C(CNc2nc(-c3cccnc3)nc3ccccc23)N(C)C)cc1 (centres undefined) | i | -2.5 | -3 | -60 | 0.2 | 45 | -2 | 5 | -2.5 | -15
C#CCOCCOCCOCCNc1nc(N2CCN(C(=O)[C@H]([C@@H](C)CC)n3cc([C@@H](N)Cc4ccc(O)cc4)nn3)CC2)nc(N2CCN(C(=O)[C@H](Cc3ccc(O)cc3)n3cc([C@@H](N)C(C)CC)nn3)CC2)n1 (some centres undefined) | i | 17 | 4 | 2 | -0.2 | -12 | -10 | -2 | 22 | 10
O=C(Nc1nc(-c2ccccn2)cs1)c1ncc(Cl)c(Cl)c1Cl | x | x | 16 | 12 | 1.2 | 35 | x | x | x | -10
Cc1ccc(-c2c(C(=O)Nc3ccccc3C)c(C)[nH]c(=S)c2C#N)o1 | x | -2.9 | -7 | 4 | 2.3 | -4 | 18 | 18 | 11 | -18
Cc1ccccc1Nc1nc(N)nc(CN2CCN(c3ccccn3)CC2)n1 | x | x | -1 | 14 | 1.7 | -25 | x | x | x | -1
COc1cc(Cn2c(=O)c3c(OC)c(C)cnc3n(C)c2=O)cc(OC)c1 | i | -3.9 | 2 | 26 | 3.2 | -8 | 14 | 12 | -1.0 | -5
COc1cc(CNCCSc2nnnn2C)cc(OC)c1OC | x | x | -8 | -16 | 2.1 | 19 | x | x | x | 1
CCCc1cc(=O)n2[nH]c(NCc3c(Cl)cccc3Cl)nc2n1 | x | x | -9 | 30 | 0.6 | -9 | x | x | x | 19
COc1ccc(NC(=O)CSc2cn[nH]n2)cc1OC | i | -14 | -6 | -6 | 0.9 | -1 | 3 | 7 | -3.4 | 2
CCOC(=O)c1c(/N=C/c2cc([N+](=O)[O-])ccc2O)sc(C)c1C | i | -2.0 | 6 | 98* | -5.8 | -15 | -13 | -7 | 1.9 | 7
O=C(COc1ncnc2scc(-c3ccccc3)c12)NCCN1C(=O)CSC1=O | x | x | -3 | -1 | -1.9 | -8 | x | x | x | -21
O=C(CN(Cc1ccccc1F)S(=O)(=O)c1ccc(Cl)cc1)NCC1CCCO1 (centres undefined) | i | -6.2 | -3 | 0 | -1.3 | 9 | -2 | -20 | -0.9 | 0
Cc1nc2c(ccc3nc(NC(=O)C4CC4)sc32)s1 | i | 3.3 | -3 | -10 | 5.9 | 7 | 3 | -30 | -2.9 | 2
Cc1ccc(S(=O)(=O)NCC(=O)OCCOc2ccc(Br)cc2)cc1 | i | 1.5 | -6 | -4 | x | x | 14 | 20 | -0.8 | x
COC(=O)c1cc(C(=O)OCC(=O)NCc2cccs2)cc([N+](=O)[O-])c1 | i | -3.7 | 0 | -3 | x | x | -1 | 8 | -0.2 | x
O=C(CSc1nnc(CNC(=O)c2ccccc2)o1)Nc1ccc2c(c1)OCO2 | i | -14 | x | 14 | -0.6 | -2 | 2 | 5 | -1.0 | 3
CCCc1ncc(C(O)c2cccc3ccccc23)n1C (centres undefined) | x | x | -1 | -6 | -0.2 | 7 | x | x | x | -7
CC(NC(=O)C1CCN(S(=O)(=O)c2cnc[nH]2)CC1)c1ccccc1 (centres undefined) | x | x | -6 | x | -0.6 | -13 | x | x | x | 11
CCN1C(=O)[C@@H]2[C@@H](c3ccc(-c4ccc(F)cc4)cc3)N3CCC[C@@]3(C(=O)OC)[C@@H]2C1=O | i | 2.5 | -8 | -3 | 7.9 | -9 | -1 | 0 | -0.7 | 8
CC(=O)c1cccc(S(=O)(=O)N2CCCC(c3nc4c(nnn4Cc4ccccc4Cl)c(=O)[nH]3)C2)c1 (centres undefined) | i | -2.8 | x | x | 1.1 | 2 | -14 | -15 | 4.8 | 14
COc1ccc(CC(=O)NCc2ccccc2)cc1S(=O)(=O)N1CCOCC1 | x | x | -4 | -20 | -1.2 | -12 | 5 | -2 | -2.6 | -3
CC1(C)CC(=O)C2=C(C1)N(c1cccc(Cl)c1)C(=O)NC2(C(F)(F)F)C(F)(F)F | i | -10 | 1 | -30 | -0.6 | -10 | 5 | -7 | -1.8 | 51
C#CC1(NC(=O)NC(C)(C)C)CCCCC1 | i | -1.3 | 4 | -26 | -2.6 | 1 | 16 | 7 | -1.0 | -24
Cc1cccc(C(=O)OCC(=O)N(CC(C)C)c2c(N)n(Cc3ccccc3)c(=O)[nH]c2=O)c1O | x | -2.8 | -5 | -6 | 1.9 | -14 | 1 | 0 | -1.5 | -4
O=C(CSc1ccccc1C(=O)O)NCc1ccccc1 | i | -6.7 | 1 | 4 | 1.0 | -14 | 7 | -4 | -3.1 | -6
COc1ccc(/C=C\c2nc(O)c([N+](=O)[O-])c(=O)[nH]2)cc1O | i | -3.2 | -5 | 62 | 1.4 | -3 | 0 | 4 | 3.1 | 0
COc1ccc(Nc2cc(C(=O)NCCCN3CCN(C)CC3)c3ccccc3n2)c(OC)c1 | x | x | -2 | 81* | -0.9 | 44 | x | x | x | 0
O=C(NCCCN1CCCCCC1)C1CC(=O)N(C2CCCC2)C1 (centres undefined) | x | x | -10 | -8 | -2.1 | -4 | x | x | x | u
CCSc1nc(-c2ccc(OC)cc2)cc(-c2ccc(OC)cc2)c1C#N | x | x | 9 | x | 3.3 | 27 | x | x | x | -6
O=C(CSc1nnc2ccccn12)NNC(=O)c1ccc([N+](=O)[O-])cc1 | i | -10 | -4 | -7 | 0.4 | -2 | 8 | 2 | -4.4 | 10

Screening results (PubChem)
